# High-throughput results from PubChem BioAssay.
# miR-21 reporter: raises the signal of a miR-21 reporter; HeLa miR-21 FLuc reporter, luciferase, 48 h; Potency, µM (titrated, usually from 38.3 µM), without a hit: at the highest dose reporter change, positive = more light; 340,000 tested, under 10 active; active = well fitted rising curve with a large enough effect; inconclusive = small, poorly fitted or top-dose-only effect; inactive = no such curve, though single readings can be large or run the other way;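 also: % of control where 0% means no effect; miR-21 action dims this reporter so a rising signal means less miR-21 action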
#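 Compounds were titrated across several concentrations (up to approximately 40 uM) and incubated 48 hours with HeLa miR-21-FLuc reporter cells (miR-21 target sequence downstream of FLuc, endogenous miR-21). Readout was firefly luciferase luminescence after lytic detection reagent.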
# Rango release inh: inhibitors of RanGTP-induced Rango-importin beta complex dissociation; Biochemical FRET Rango-importin beta, RanGTP-induced dissociation; Potency, µM (doses to about 46.1 µM), for the others: at the top dose activity change, negative = inhibition; 340,000 compounds, 0.071% hits; AID 540253; active means falling FRET ratio curve, often poorly fitted, with flat reads before Ran was added; inconclusive means other falling curves, or compound fluorescence or quenching; inactive means flat or rising ratio curve;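 also: potency is read from the fitted curve at half-maximal effect; % of control where 0% means no effect; nearly all actives have a fitted effect of over 45% in size; -100% = wells without RanGTP and RCC1; the record marks most hits as doubtful in a second field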
#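 Two FRET readings bracket the reaction: one 5 min after compound meets Rango–importin beta, another 45 min after RanGTP-RCC1 (0.6 uM Ran, 0.2 uM RCC1, 2 mM GTP) is added. Only the second defines inhibition.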
# GLA inh pH 4.5: inhibitors of human alpha-galactosidase A at pH 4.5; P06280; purified enzyme, 4-MU-alpha-Gal fluorescence, pH 4.5; activity change, negative = inhibition, % at 105 µM; 230,000 tested, under 10 active; AID 1467; inconclusive = small, poorly fitted or top-dose-only inhibition, or a rising curve; inactive = flat fitted curve, though single readings scatter; no compound was filed as active;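 also: 0% = full activity with enzyme and -100% = basal without enzyme; dose as in the result columns while the protocol names 77 µM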
# Rango-impB inh: Rango-importin beta binding inhibition; Q14974; Rango CFP/YFP FRET sensor + importin beta, 45 min; Potency, µM (highest dose often 92.2 µM), inactives show top-dose inhibition of complex formation; 340,000 compounds, 0.031% hits; active = rising FRET ratio curve, often small or poorly fitted; inconclusive = mostly compound fluorescence or quenching in the first reads; inactive = flat curves in all reads;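 also: potency is read from the fitted curve at half-maximal effect; 0% = DMSO wells and 100% = buffer wells lacking importin beta; nearly all actives have a fitted effect of over 15% in size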
# Target sequence (Q14974 whole entry, looked up): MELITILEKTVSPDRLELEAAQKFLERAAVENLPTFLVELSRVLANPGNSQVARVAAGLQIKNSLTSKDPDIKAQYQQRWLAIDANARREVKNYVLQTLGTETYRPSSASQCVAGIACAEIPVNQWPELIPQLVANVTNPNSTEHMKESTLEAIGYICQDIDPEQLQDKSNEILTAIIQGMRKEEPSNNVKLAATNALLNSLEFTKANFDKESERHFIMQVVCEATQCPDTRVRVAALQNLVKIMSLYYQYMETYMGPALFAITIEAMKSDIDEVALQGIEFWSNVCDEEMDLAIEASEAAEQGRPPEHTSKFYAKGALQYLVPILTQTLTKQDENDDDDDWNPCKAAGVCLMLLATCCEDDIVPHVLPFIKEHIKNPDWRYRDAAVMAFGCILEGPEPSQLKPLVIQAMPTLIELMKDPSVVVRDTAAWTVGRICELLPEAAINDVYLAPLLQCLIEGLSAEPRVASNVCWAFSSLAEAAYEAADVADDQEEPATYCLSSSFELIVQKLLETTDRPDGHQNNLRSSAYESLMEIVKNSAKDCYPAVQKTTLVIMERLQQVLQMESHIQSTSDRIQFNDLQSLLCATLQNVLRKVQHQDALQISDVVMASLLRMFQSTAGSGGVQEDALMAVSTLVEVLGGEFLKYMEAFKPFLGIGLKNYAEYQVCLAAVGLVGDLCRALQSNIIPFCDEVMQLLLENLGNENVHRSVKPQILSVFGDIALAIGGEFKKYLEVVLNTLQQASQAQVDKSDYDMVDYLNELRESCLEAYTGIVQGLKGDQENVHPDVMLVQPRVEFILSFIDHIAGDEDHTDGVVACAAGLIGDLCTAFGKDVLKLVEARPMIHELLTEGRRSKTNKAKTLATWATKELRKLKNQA
#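 FRET biosensor (snurportin 1 IBB flanked by EYFP and cerulean), 50 nM, with compound 5 min, then 0.125 microM importin beta in PBS, 1 mM DTT, 0.02% Tween-20, 0.1% BSA. CFP/YFP ratio read after 45 min at room temperature; pre-read flags interference.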
# Starred values were filed as active, the others as inactive; ? = inconclusive; . = no result given; & = joins results of further samples. Only part of the results is shown; count on the stated rates, not on these rows.
SMILES	miR-21 reporter	Rango release inh	GLA inh pH 4.5	Rango-impB inh
CCOc1ccc(NC(=O)C(C)SC(N)=O)cc1 (stereo unspecified)	-3%	14%	10	2.9%
Cc1ccsc1/C=C/c1ccc2cccc(O)c2n1	-41%	27%	-3	-4.1%
CN(C)c1ccc(/C=N/NC(=O)c2nnn(-c3nonc3N)c2CN(C)c2ccccc2)cc1	2%	-17%	.	?
Cc1noc(C)c1-c1csc(N2CCC(C(N)=O)CC2)n1	.	-7%	.	2.6%
CCCC(=O)NC(C)c1nc2ccccc2n1C(C)C (stereo unspecified)	-2%	3%	2	-1.1%
O=C(Nc1c(-c2ccccc2)nc2ccccn12)c1cccs1	-11%	6%	0	-0.6%
Cc1cc(SCC(=O)N/N=C/c2ccc(O)c(O)c2O)c(C)cc1Br	25%	-2%	-5	-4.1%
CC(=O)Nc1ccc(NC(=O)CSc2nc3ccccc3nc2N2CCC(C)CC2)cc1	-10%&-14%	10%	.	1.3%
CCOC(=O)C1=C(CNC(C)(C)CC(C)(C)C)NC(=O)NC1c1cccc([N+](=O)[O-])c1 (stereo unspecified)	4%	5%	-18	0.1%
COCCn1c(C)cc(C2=NNC(=Nc3ccc(F)cc3)SC2)c1C	-37%	-6%	0	2.0%
CCOC(=O)C1CCCN(c2cc(=O)n(-c3ccccc3Cl)c(=O)[nH]2)C1 (stereo unspecified)	0%	4%	7	0.4%
CCOC(=O)C1=C(C)NC(=O)C(C(N)=O)C12CCCCC2 (stereo unspecified)	-4%	14%	6	-0.3%
CCN1CCc2c(OCc3ccc(C(=O)OC)o3)cccc2C1=O	-1%	-1%	0	-3.6%
CC/C(=C/c1ccccc1)c1cccc2[nH]c3c(OC)cccc3c12	16%	14%	.	-6.9%
COc1ccc(NS(=O)(=O)c2ccc(N3CCCC3)c(N)c2)cc1	12%	-7%	.	0.0%
Cc1ccc(CN2CCC(n3nccc3NC(=O)C3CCOC3)CC2)cc1C (stereo unspecified)	-4%	-3%	.	-2.2%
COc1cc(C(=O)Oc2ccc3ccc(O)cc3c2)cc(OC)c1OC	-16%	-10%	.	0.0%
COc1ccc(-c2cc(C(=O)N3CCN(c4ccccc4O)CC3)c3ccccc3n2)cc1OC	2%	-8%	.	0.8%
COc1ccc(Oc2ccc(N/C=C/C(=O)C(C)(C)C)cc2)cc1	-13%	1%	-3	?
Cc1ccc(C(=O)c2c[nH]c3c(F)cc(F)cc3c2=O)cc1	-7%	-5%	-1	0.1%

# (more compounds)
SMILES	miR-21 reporter	Rango release inh	GLA inh pH 4.5	Rango-impB inh
Cc1ccc(S(=O)(=O)N(C)C)cc1NC(=O)c1ccc2ccccc2n1	-34%	-7%	-2	-0.3%
C#CCNC(=O)C1=C[C@H](c2ccc(C(F)(F)F)cc2)C[C@H](OCc2ccc(CO)cc2)O1	-6%	1%	-5	3.2%
O=C1C(=O)N(Cc2ccccc2)C(c2cccc(O)c2)/C1=C(\O)c1ccc2c(c1)OCCO2 (stereo unspecified)	-1%	-12%	.	-1.5%
COc1ccc(S(=O)(=O)Nc2ccc(N(C)C(C)=O)cc2)cc1	0%	-7%	0	?
CCOc1ccc(CN2CCNC(=O)C2CC(=O)NCCCOc2cccnc2)cc1 (stereo unspecified)	-1%	-22%	.	-1.8%
CCCCn1c(N)c(N(CC(C)C)C(=O)c2ccc(C)o2)c(=O)[nH]c1=O	.	-6%	.	2.5%
Oc1ccc(-c2nc3ccccc3nc2-c2ccccc2)cc1	15%	-16%	.	-9.9%
O=C(CCN1C(=O)c2ccc([N+](=O)[O-])cc2C1=O)Nc1ccc(O)cc1C(=O)O	1%	-25%	3	-2.1%
O=C(NCCC(=O)N1CCN(C(=O)c2ccco2)CC1)c1ccc(Br)cc1	.	-10%	.	-0.7%
O=C(O)c1ccccc1N=Nc1c(O)[nH]c2ccc([N+](=O)[O-])cc12	-17%	-2%	.	0.8%
CCOC(=O)C1(CCc2ccccc2)CCN(Cc2c(O)cccc2OC)CC1	15%	-4%	-5	9.4%
COc1ccc(C(=O)NC(=S)Nc2cccc(S(=O)(=O)N3CCOCC3)c2)cc1	24%	?	-6	-5.3%
COC(=O)c1cnn2c(C(F)(F)F)cc(-c3ccc(F)cc3)nc12	0%	-14%	6	?
Cn1c(=O)[nH]c(=O)c2c1nc1n2CCCN1CCc1ccccc1	0%	16%	7	?
CC1COc2ccccc2N1C(=O)c1ccccc1Cl (stereo unspecified)	-1%	6%	.	-0.4%
CC1CC(C)CN(C(=O)COC(=O)Cc2ccc(Cl)cc2)C1 (stereo unspecified)	9%	5%	.	2.4%
C=CCC(NC(=O)c1ccc(C#N)cc1)C(=O)NCCC (stereo unspecified)	.	11%	.	0.7%
Cc1c(/C=C/C(=O)c2cccs2)cnn1C	-62%	-14%	2	-4.5%
O=S(=O)(c1ccccc1)N1CCC(O)(CSc2ccccc2)CC1	15%	1%	-1	-0.1%
CCOC(=O)c1c(O)c2c(n(Cc3ccco3)c1=O)CCCC2	13%	-3%	-17	0.9%

# The list goes on:
SMILES	miR-21 reporter	Rango release inh	GLA inh pH 4.5	Rango-impB inh
O=C1NCCN1c1ccc(CN2CCN(C3CCCCC3)C(CCO)C2)cc1 (stereo unspecified)	0%	2%	4	0.2%
COc1cc(C(CC(=O)N2CCOCC2)c2c(OC)cc(OC)c3ccc(=O)oc23)cc(OC)c1OC (stereo unspecified)	0%	0%	-2	?
CCN(CCNC(=O)c1ccc(CSc2nc3ccncc3[nH]2)cc1)c1ccccc1	22%	33%	-5	-4.3%
O=[N+]([O-])c1ccc(-c2ccn[nH]2)o1	-1%	?	-8	1.0%
O=C(O)c1ccccc1C(=O)Nc1nc(-c2ccc3ccccc3c2)cs1	-29%	11%	.	-0.4%
O=C(CSc1nnc(SCC(=O)c2ccco2)s1)c1ccco1	-11%	-3%	8	0.5%
O=C(c1cccc2ccccc12)N1CCN(c2ccccc2F)CC1	-5%	12%	-7	-1.0%
COc1ccc(CN2CCNC(=O)C2CC(=O)NCCc2cnccn2)cc1C (stereo unspecified)	2%	12%	.	0.2%
COc1ccc(C(=O)CSc2nnc(CNC(=O)c3ccc(S(=O)(=O)N(C)C)cc3)o2)cc1	0%	0%	.	0.2%
NCc1cc2c3c(c1)CCCN3CCC2	0%	2%	.	0.2%
O=C(Nc1ccc(F)cc1F)c1c(C(F)(F)F)ccnc1Oc1ccc(Cl)cc1	8%	1%	8	0.6%
CCN(CC)S(=O)(=O)c1ccc(N2CCOCC2)c(NC(=O)C2CC2)c1	.	-13%	.	2.6%
COc1cccc(-c2c(C(=O)N/N=C/c3ccc(C)o3)nnn2-c2nonc2N)c1	-4%	-11%	.	0.0%
O=S(=O)(c1cccs1)N1CCN(S(=O)(=O)c2cccs2)CC1	0%	-7%	6	0.6%
Cc1cc(N2CCOCC2)nc(-c2ccc(Br)cc2)n1	-30%	-6%	-1	2.0%
COc1ccc(-n2nnc3c(=O)n(CC(=O)N4CCCC4)cnc32)cc1	-12%	9%	-6	1.2%
C/C(=N\NC(=S)NCc1ccccc1)c1ccc(C)o1	-8%	28%	-1	0.7%
CCCCCn1c(C)c2c(OCC)cccc(=O)c2c1C	-7%	?	-4	?
CCOC(=O)c1ccc(NC2=CC(=O)C(=O)c3ccccc32)cc1	-6%	-5%	8	-3.1%
COc1ccc(CNC(=O)C2CSC(=O)C2)cc1 (stereo unspecified)	1%	-4%	4	?

# (next part)
SMILES	miR-21 reporter	Rango release inh	GLA inh pH 4.5	Rango-impB inh
COc1ccc(OCC(O)CN2CCN(c3ncccn3)CC2)cc1 (stereo unspecified)	-4%	0%	-5	-0.5%
COc1cccc(CNC(=O)C2CCN(S(=O)(=O)c3cccs3)CC2)c1	-5%	-7%	2	-0.4%
CCOc1ccc(OCC)c(S(=O)(=O)NCc2ccccn2)c1	-2%	6%	-14	-1.2%
O=CN1CCN(C(=O)c2cc3cc(Cl)ccc3[nH]2)CC1	-4%	10%	.	4.4%
CN1CCN(C(=O)c2ccc(-c3cccs3)s2)CC1	-47%	0%	-4	0.4%
CC(C)(C)CC(=O)Nc1nnc(SCC(=O)NC2CCCC2)s1	8%	-12%	.	-0.2%
O=C(NC1CCCC1)C1CCN(C(=O)Nc2cccc(Cl)c2)CC1	1%	2%	.	2.7%
Cc1nnc(SCC(=O)Nc2ccc3c(c2)OCO3)s1	0%	-12%	.	1.7%
CCN(CC)CCSc1nc2ccc(OC)cc2[nH]1	8%	1%	4	-2.2%
O=C(O)c1cc(NCc2ccccc2C(F)(F)F)ccc1N1CCOCC1	-7%	-10%	3	0.0%
CCc1ccc(C(=O)COC(=O)CNC(=O)c2ccco2)cc1	-2%	0%	3	2.5%
CC(=O)C[C@@H](O)CC(=O)[C@@H]1OC(=O)CCCCCc2ccccc21	.	0%	.	-3.8%
COc1ccc(/C=C/C(=O)Nc2cccnc2)cc1OC	-51%	-23%	2	-1.8%
CC(=O)Nc1ccc(NC(=O)CSc2nnc(NC(=O)c3ccc(Br)o3)s2)cc1	7%	11%	.	0.4%
C/C=C/COC(=O)c1[nH]c2c(c1C)C(=O)CC(c1ccco1)C2 (stereo unspecified)	27%	-7%	2	-1.8%
Cc1ccc2cc(/C=N/NC(=O)[C@H](C)NC(=O)OC(C)(C)C)c(Cl)nc2c1	-1%	2%	5	-2.4%
CCN(c1ccc(OC)cc1)S(=O)(=O)c1nnc(NC(=O)C2CCCCC2)s1	1%	-16%	.	4.6%
Cc1ccccc1OCC(=O)N(Cc1cccc(F)c1)C1CCS(=O)(=O)C1 (stereo unspecified)	-5%	9%	.	0.4%
Cc1cc(NC(=O)c2c(F)cccc2F)n(-c2nc3ccccc3[nH]2)n1	-1%	0%	1	3.4%
Cc1ccnc(NS(=O)(=O)c2ccc3ccccc3c2)n1	-8%	1%	.	0.2%

# Compound profiles, as listed above:
# CC(C)(C)CC(=O)Nc1nnc(SCC(=O)NC2CCCC2)s1 is listed with miR-21 reporter: 8%; Rango release inh: -12%; GLA inh pH 4.5: .; Rango-impB inh: -0.2%
# C/C=C/COC(=O)c1[nH]c2c(c1C)C(=O)CC(c1ccco1)C2 (stereo unspecified) is listed with miR-21 reporter: 27%; Rango release inh: -7%; GLA inh pH 4.5: 2; Rango-impB inh: -1.8%
# CCN(CC)CCSc1nc2ccc(OC)cc2[nH]1 is listed with miR-21 reporter: 8%; Rango release inh: 1%; GLA inh pH 4.5: 4; Rango-impB inh: -2.2%

# Continuation:
SMILES	miR-21 reporter	Rango release inh	GLA inh pH 4.5	Rango-impB inh
CC(NC(=O)C1CCC(CNc2c(N3CCCCC3)c(=O)c2=O)CC1)c1ccccc1 (stereo unspecified)	0%	-3%	5	0.1%
O=C(N/N=C/c1cccc(O)c1)c1ccc(COc2ccccc2Br)cc1	-30%	-5%	3	4.9%
COc1cccc(/C=N/NC(=O)CNC(=O)COc2ccccc2)c1O	26%	0%	-3	0.1%
N#CCSc1nc2ccc(N3CCCCC3)cc2c(=O)n1Cc1ccccc1	-33%	-24%	5	?
COc1ccc(-n2ncc3c(NCc4ccco4)ncnc32)cc1	-49%	-3%	9	-1.2%
COc1ccc(-n2nc(C(=O)NCC(=O)N3CCOCC3)c3ccccc3c2=O)cc1OC	-2%	15%	.	1.5%
COc1ccc(OCCSc2nc(C)nc3ccccc23)cc1	1%	1%	5	-1.4%
CC(=O)c1ccc(OCCCC(=O)Nc2cc(Cl)ccc2-n2cncn2)cc1	-1%	13%	.	-0.3%
CCc1ccc(NC(=O)Cc2ccc(OC)cc2)cc1	-47%	.	-6	.
O=C(CSCc1c(Cl)cccc1Cl)NN=C1CCCC1	-1%	-29%	-1	-3.8%
COc1ccccc1/C=C/C(=O)NCC(=O)N/N=C(/C)c1ccc(Cl)cc1	2%	-6%	.	0.2%
CCCCOC(=O)Cn1c(=N)n(CCN(CC)CC)c2ccccc21	-1%	4%	1	4.5%
